From PubChem
MLL AF4-AF9 inh – inhibitors of human MLL-AF4/AF9 interaction | P42568 | AlphaScreen, biotin-AF4 peptide binding to FLAG-AF9 | inhibition, % at 10 µM | 0.47% of 350,000 active;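 active means every replicate reaching a set inhibition limit, whatever the replicate mean, cut at about 25% in these data; inconclusive means mean inhibition reaches that limit but some replicates miss it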;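 further: 0% = plate neutral control median and 100% = total signal loss; the record names both 10 and 1 µM as test concentration; the first replicate is given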
Target sequence (P42568 whole entry, looked up): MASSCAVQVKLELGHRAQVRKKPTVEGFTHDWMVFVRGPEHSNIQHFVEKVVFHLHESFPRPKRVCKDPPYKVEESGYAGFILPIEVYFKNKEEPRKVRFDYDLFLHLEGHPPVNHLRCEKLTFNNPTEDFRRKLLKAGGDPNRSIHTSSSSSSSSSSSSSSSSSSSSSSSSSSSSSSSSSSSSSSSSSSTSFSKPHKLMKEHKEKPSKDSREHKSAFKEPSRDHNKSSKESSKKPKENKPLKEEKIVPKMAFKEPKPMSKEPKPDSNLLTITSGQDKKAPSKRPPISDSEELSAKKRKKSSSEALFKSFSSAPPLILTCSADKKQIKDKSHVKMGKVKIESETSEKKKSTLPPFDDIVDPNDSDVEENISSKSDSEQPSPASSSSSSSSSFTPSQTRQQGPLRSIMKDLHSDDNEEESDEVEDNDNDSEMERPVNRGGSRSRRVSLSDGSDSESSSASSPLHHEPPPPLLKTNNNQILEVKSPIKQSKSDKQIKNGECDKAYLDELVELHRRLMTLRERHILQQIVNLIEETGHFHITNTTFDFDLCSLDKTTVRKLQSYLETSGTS
FGF22 binding – FGF22 (human) thermal shift binding; Q9HCT0; recombinant FGF22 thermal shift, SYPRO orange fluorescence; percent of sucrose octasulfate shift, DMSO zero; calls only at 9.99 µM; 1.5% of 340,000 active; AID 651658;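 active means melting point raised past a set limit in the mean and every replicate; inconclusive means no clear call; three in four hits are not shown here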
Target sequence (Q9HCT0 whole entry, looked up): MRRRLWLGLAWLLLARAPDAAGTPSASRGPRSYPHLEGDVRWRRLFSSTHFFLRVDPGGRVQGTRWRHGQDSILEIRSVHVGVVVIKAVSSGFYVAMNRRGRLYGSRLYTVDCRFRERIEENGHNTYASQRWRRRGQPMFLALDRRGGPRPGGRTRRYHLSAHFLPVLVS
RanGTP-Impb inh – inhibitors of RanGTP-importin-beta interaction, primary screen, biochemical, FRET, CFP-Ran, YFP-importin-beta, homogeneous; cell-free CFP-Ran/YFP-importin-beta FRET ratio; inhibition, % (concentration not given with the values); 1.1% of 300,000 active; AID 2216;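 active means most replicates above 15%; inconclusive means exactly half above 15%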;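 further: 0% = DMSO wells and 100% = Ran loaded with GDP instead of GTP; wells of about 40 µL received 100 nL stock; the first replicate is given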
UCH37 DUB inh – blocks the human deubiquitinase UCH37; purified proteasome/UCH37, Ub-AMC cleavage fluorescence; inhibition, % (test concentration not listed); 0.33% of 330,000 active; AID 588478; Q9Y5K5;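 active means mean of two replicates above 20%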;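 further: 0% = compound-free wells with enzyme and 100% = wells lacking proteasome; stock transfer was 100 nL into about 20 µL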
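Material: Human UCH37 enzyme supplied as purified proteasome complex | Schedule: 30 min compound-proteasome preincubation then 25 min substrate reaction, room temperature | Detection: AMC fluorescence from Ub-AMC cleavage, excitation 355 nm, emission 460 nm | Benchmarks: Wells without proteasome as full block, compound-free enzyme plus substrate as uninhibited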
Ecoli growth – blocks Escherichia coli growth; OD600, 23 h; hits give low values; OD600 absorbance (no concentration beside the values); 0.21% of 330,000 active;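 active means OD600 absorbance below the run mean of sample wells minus 3.6 SD, in any replicate, cut at about 0.56 in these data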;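 further: stock transfer was 300 nL into about 60 µL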
Vif A3G – HIV-1 Vif–A3G interaction blockers – biochemical, TR-FRET, GST-Vif 1-94, biotin-A3G peptide, dose response retest, primary screen (AID 1117319) | TR-FRET GST-Vif / biotin-A3G peptide binding; higher % means a stronger effect; test concentration not given here; strong numbers were not always called active | one-dose inhibition, %; IC50 in µM for titrated hits | 0.57% of 260,000 active;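 active means above the screen mean plus three standard deviations and confirmed in dose response; inconclusive means results disagree or hit not tested in dose response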;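 further: Vif residues 1-94 fused to GST binding biotinylated APOBEC3G peptide 110-148; 0% = full assay without inhibitor and 100% = GST in place of GST-Vif; retest series ran down from 100 µM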
HNF4A DNA FP – change in binding of human HNF4 alpha to DNA. P41235. HNF4a-FITC DNA binding, fluorescence polarization, 1 h. activity change, % at 10 µM. 0.3% of 360,000 active; in the data active means activity change above about 30%, passing the limit was not always enough;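 further: controls were the assay level and a saturating level of protein; the project sought stronger binding though the title names inhibitors; some compounds called inactive have numbers as strong as hits; positive values seem to mean higher polarization but the record does not say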
Numbers without * were called inactive; i = inactive; ? = inconclusive; · = no result given.

Each structure is followed by: MLL AF4-AF9 inh	FGF22 binding	RanGTP-Impb inh	UCH37 DUB inh	Ecoli growth	Vif A3G	HNF4A DNA FP
1: CCC1Oc2ccccc2N(CC(=O)NC2CC2)C1=O (centres undefined)
  -3.4	i	?	0.2	0.7	·	-0.3
2: O=C(CCCCC(=O)N1CCOCCOCCOCC1)OCc1ccccc1
  ·	i	0.5	5.8	0.63	8%	-2.0
3: COc1nc(NC(=O)c2ccc(F)cc2)nc(OC)c1-c1ccccc1
  -2.5	i	0.5	0.1	0.68	-12%	0.6
4: COC(=O)c1c(-c2ccccc2OC)sc2cc3c(cc12)OCO3
  -0.8	i	·	·	·	·	-2.3
5: Fc1ccc(NC(=S)Nc2cccnc2)cc1
  -1.6	·	-0.3	1.7	0.68	-7%	-0.1
6: C/C(Cc1ccccc1)=N\NC(=O)c1ccccn1
  -1.2	i	3.7	·	·	·	2.2
7: Cc1cccc(Nc2nc(N)nc(CCl)n2)c1C
  -0.3	i	7.6	·	·	·	-0.2
8: COc1ccc2c(c1)cc(C(=O)O)n2C
  ·	·	3.1	-61	0.7	-2%	-1.3
9: O=C(COc1ccc(Cl)cc1Cl)Nc1ccc2nc3n(c(=O)c2c1)CCCC3
  ·	·	-2.9	-1.6	0.69	-27%	2.0
10: COc1cc(-c2nc3ccc4ccccc4c3c3c2CCC3)cc(OC)c1O
  ·	·	6.3	-31	0.65	0%	0.2
11: COC(=O)C1=C(C)NC(=S)NC1c1ccco1 (centres undefined)
  -1.0	·	-1.1	5.9	0.68	31%	2.8
12: Fc1ccc(OCCCCCn2ccnc2)cc1
  1.3	i	-0.1	0.9	0.66	-6%	-2.3
13: CCCCc1cc(=O)oc2cc(C)cc(OCC(=O)NCCN3CCOCC3)c12
  -2.4	i	?	-106	0.68	2%	-0.2
14: COCCN1C(=O)N[C@@H](CCc2ccccc2)[C@H](C(=O)OC)[C@H]1C
  0.2	i	-0.7	·	·	·	-1.0
15: CC(Oc1ccc2c(c1)oc(=O)c1ccccc12)C(=O)NCC1CCC(C(=O)O)CC1 (centres undefined)
  -0.9	i	0.9	-308	0.75	·	1.2
16: O=C(COc1ccccc1)NC1C(=O)N2C(C(=O)O)=C(Cl)CSC12 (centres undefined)
  -5.8	i	-4.4	1.5	0.69	2%	-1.1
17: O=C(O)c1cc(Br)ccc1NN=C1CCCCC1
  3.4	i	0.9	2.2	0.67	-5%	0.7
18: O=C(N/N=C/c1c(O)n(-c2ccc(Cl)cn2)c(=O)c2ccccc12)C1CC1
  ·	·	2.4	-2.8	0.63	?	13
19: O=C(COC(=O)Cc1ccc(Cl)cc1Cl)NCCC1=CCCCC1
  -0.9	i	-1.4	5.2	0.71	·	-1.1
20: Cn1c(=O)c2[nH]c(=O)[nH]c2n(C)c1=O
  -0.5	i	·	·	·	·	2.4

Continued; it opens with the 3 that closed the last part.
Each structure is followed by: MLL AF4-AF9 inh	FGF22 binding	RanGTP-Impb inh	UCH37 DUB inh	Ecoli growth	Vif A3G	HNF4A DNA FP
18: O=C(N/N=C/c1c(O)n(-c2ccc(Cl)cn2)c(=O)c2ccccc12)C1CC1
  ·	·	2.4	-2.8	0.63	?	13
19: O=C(COC(=O)Cc1ccc(Cl)cc1Cl)NCCC1=CCCCC1
  -0.9	i	-1.4	5.2	0.71	·	-1.1
20: Cn1c(=O)c2[nH]c(=O)[nH]c2n(C)c1=O
  -0.5	i	·	·	·	·	2.4
21: COc1ccc(Cc2nnc(N/N=C(\C)c3ccccc3)[nH]c2=O)cc1OC
  -1.4	i	-3.2	·	·	-6%	0.4
22: c1cc(-c2cc3cc4c(cc3cn2)OCO4)cs1
  -5.6	i	·	-1.9	0.69	·	-2.3
23: CC1CCCN(c2ccc(C(=O)Nc3cccnc3)cc2[N+](=O)[O-])C1 (centres undefined)
  9.6	i	-2.8	4.7	0.64	·	2.9
24: CC(=O)Nc1ccc(S(=O)(=O)N2CCN(C3CCCCCCC3)CC2)cc1
  ·	·	-2.3	1.0	0.71	0%	2.9
25: COc1ccc(OC)c(NC(=O)N2CCc3ccccc3C2)c1
  4.2	i	-1.2	2.0	0.68	·	-0.4
26: COc1ccc(NS(=O)(=O)c2ccc(NC(=S)NC(=O)C(C)C)cc2)cc1
  ·	·	0.9	4.2	0.73	10%	2.6
27: Cc1ccc(C(=O)OCc2nnc(-c3ccccc3)o2)o1
  ·	·	0.8	-0.7	0.69	12%	4.4
28: NC1=NC(=O)/C(=C\c2cc([N+](=O)[O-])ccc2Cl)S1
  -9.3	i	·	·	·	-8%	7.3
29: Cc1nc(NC(C)C)c2oc3ccccc3c2n1
  ·	·	5.6	-2.0	0.72	2%	0.3
30: O=C(NCc1ccccc1)c1cc2nc(C3CC3)cc(C(F)(F)F)n2n1
  ·	·	-1.7	2.7	0.68	2%	-3.2
31: COc1ccc(C(=O)NCc2nnc(SCC(=O)Nc3ccccc3OC)n2C)cc1
  -1.9	i	-3.5	0.8	0.67	1%	3.1
32: COc1ccc([N+](=O)[O-])c(OC)c1C(=O)NC(=O)Nc1c(F)c(F)c(F)c(F)c1F
  3.7	i	-1.3	4.9	0.66	5%	2.8
33: CCOc1ccc(NC(=O)c2ccc(NC(=O)Cc3n[nH]c(=O)c4ccccc34)cc2)cc1
  -13	i	-0.1	-1.7	0.74	5%	2.0
34: CCC(C(=O)Nc1ccc(C)cc1)c1ccccc1 (centres undefined)
  1.6	i	0.6	0.9	0.68	3%	2.7
35: O=C(NC1CC1)c1ccc2c3c(cccc13)CC2
  ·	·	1.3	-3.8	0.66	20%	-1.1
36: COc1ccc(N2CCN(C(=O)c3ccc4c(c3)CCN4S(=O)(=O)c3ccccc3)CC2)cc1
  0.3	i	-2.0	1.1	0.71	·	-1.6
37: Cc1noc(C)c1-c1nc(CS(=O)(=O)c2ccc(F)cc2)no1
  -0.5	i	?	6.5	0.66	-7%	3.8
38: CC(C)OCCCn1c(=O)c2ccccc2n2c(CCC(=O)O)nnc12
  3.9	i	?	0.0	0.68	0%	-1.4
39: COc1ccc(-c2nn(C)c(=O)c3ccccc23)cc1NC(=O)Cn1nc(C)c2ccccc2c1=O
  ·	·	2.4	-2.7	0.67	-5%	13
40: CCOC(=O)c1cc(-c2ccc(F)cc2)n(CC(=O)NCc2cccnc2)c1C
  0.9	i	0.1	3.5	0.7	-13%	-0.1

Next structures follow.
Each structure is followed by: MLL AF4-AF9 inh	FGF22 binding	RanGTP-Impb inh	UCH37 DUB inh	Ecoli growth	Vif A3G	HNF4A DNA FP
41: CCOc1ccc(-c2nnn(CC(=O)NCc3ccc(OC)cc3)n2)cc1OCC
  ·	·	-1.0	0.4	0.7	-1%	1.4
42: O=C1c2ccccc2C(=O)N1Cc1cc(-c2ccc(Cl)cc2)no1
  -21	i	4.4	-1.6	0.67	·	-3.4
43: O=C(c1ccoc1)N1CCN(c2cc(-c3ccccc3)nc3cc(-c4ccccc4)nn23)CC1
  -5.7	i	·	·	·	·	1.0
44: NC(=O)CC(NC(=O)c1ccccc1)c1ccc(N2CCC(N3CCCC3)CC2)c([N+](=O)[O-])c1 (centres undefined)
  -0.5	i	-1.6	3.4	0.66	·	2.1
45: O=C(NCCN1C(=O)S/C(=C\c2ccc(Cl)c(Cl)c2)C1=O)C1COc2ccccc2O1 (centres undefined)
  -1.2	i	2.7	0.9	0.72	1%	-0.7
46: CN1CCCC1CCNc1ccc2c(=O)c3ccccc3oc2c1 (centres undefined)
  -12	i	49*	-491	0.68	·	0.2
47: Oc1ccc(N2CCN(c3ncnc4sc(-c5ccccc5)cc34)CC2)cc1
  13	i	7.2	-1.4	0.71	·	-4.6
48: O=C(Cn1c(C(F)(F)F)nc2ccccc21)c1ccc(F)cc1
  ·	·	-0.3	2.4	0.76	-1%	-2.1
49: O=C(COc1ccc(F)cc1Br)Nc1ccccc1N1CCCC1
  2.5	i	·	·	·	·	-1.1
50: Brc1ccc(-c2csc(N/N=C/c3ccc4c(c3)OCO4)n2)cc1
  -0.3	i	0.8	·	·	18%	1.3
51: COc1ccc(-c2csc(N)n2)cc1
  ·	·	-2.6	1.4	0.66	4%	-1.8
52: O=c1c2ccccc2oc2ccc(Oc3ccccc3)cc12
  0.0	i	?	3.4	0.67	·	-3.5
53: O=C(c1ccc(Cl)cc1)N1CCN(c2cc(=O)[nH]nc2-c2ccccc2)CC1
  ·	·	-3.8	1.4	0.7	-3%	3.1
54: Nn1c(Cc2ccccc2)nnc1Cc1ccccc1
  -2.9	i	·	8.8	0.7	-6%	3.2
55: COC(=O)C1CCN(C(=O)COC(=O)CSc2ccc(C(N)=O)cc2[N+](=O)[O-])CC1
  -1.8	i	6.2	4.7	0.64	0%	2.6
56: COc1ccc(CCN2C(=O)NC(NC(C)=O)(C(F)(F)F)C2=O)cc1OC (centres undefined)
  -4.3	i	1.8	2.0	0.7	32%	0.8
57: CCSc1nnc(NC(=O)CCc2ccc(OC)cc2)s1
  ·	·	-12	-2.1	0.73	-57%	3.7
58: Cc1ccc(-n2ncc3c(Nc4cccc(C(=O)O)c4)ncnc32)cc1
  -0.2	·	9.0	-3.8	0.74	16%	0.5
59: COCCNC(=O)C(c1ccc(C)o1)N(Cc1ccc(OC)cc1)C(=O)Cn1nnc2ccccc21 (centres undefined)
  ·	·	?	0.8	0.71	12%	-0.2
60: S=C1NC2=C(CCCC2=C2SCCS2)C(c2ccccc2)N1 (centres undefined)
  -4.4	i	-1.9	5.7	0.69	-2%	-0.3

Additional structures follow:
Each structure is followed by: MLL AF4-AF9 inh	FGF22 binding	RanGTP-Impb inh	UCH37 DUB inh	Ecoli growth	Vif A3G	HNF4A DNA FP
61: O=C(CN1C(=O)c2cccnc2Oc2ccc(Cl)cc21)NCCCc1ccccc1
  0.0	i	4.0	0.6	0.68	-2%	3.0
62: Cc1ccc(S(=O)(=O)N/N=C/c2c(F)cccc2Cl)cc1
  ·	·	3.5	·	·	-1%	-0.2
63: CCOC(=O)Cn1c(-c2cccnc2Cl)nc2cc(Cl)c(Cl)cc21
  ·	·	-5.3	-2.4	0.72	-17%	-1.3
64: COC(=O)c1c(-c2c(Cl)cccc2Cl)noc1C(=O)NNC(=O)N(C)C
  -2.9	i	1.8	1.2	0.69	·	2.6
65: Nc1cccc(-c2nnc3n2CCCCC3)c1
  -0.1	i	2.7	-2.9	0.71	2%	2.5
66: CC(=O)Nc1ccc(S(=O)(=O)NCC2CCC(C(=O)NC(C)c3ccc4c(c3)OCCO4)CC2)cc1 (centres undefined)
  ·	·	-0.5	1.4	0.73	13%	·
67: Cc1ccc(C=Nc2ccccc2C(N)=O)o1
  -9.5	i	-2.3	-272	0.67	23%	1.0
68: COC(=O)c1ccc2nc(-c3ccc(F)cc3)c(Cc3ccc(C)cc3)n2c1
  -0.8	i	·	·	·	·	5.6
69: COc1ccc(/C=N/NC(=S)Nc2cccc(C(=O)O)c2)cc1OC
  5.3	i	6.9	·	·	·	-1.7
70: CN1CCN(C(=O)c2ccc(CSc3nc4ccncc4n3Cc3ccc(F)cc3)cc2)CC1
  -11	i	?	2.8	0.7	18%	0.6

The list is partial, so the mix of outcomes need not match the whole.
